Yeast UUG start – alters start codon recognition fidelity in yeast; S. cerevisiae UUG-firefly luciferase reporter, luminescence/redox ratio; actives 0.13% (n = 350,000); activity score, % at 18.7 µM;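 active = replicate mean at a twofold rise or more, about +100% in these data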;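 also: firefly luciferase made from a UUG start codon reports start codon fidelity; reporter light over untreated wells divided by growth signal over untreated wells; some hits fall short of that in this replicate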
HIV Env fusion – blocks HIV Env-driven cell-cell fusion; HeLa-JRFL Env/CEM21 cell fusion, luciferase; inhibition, % at 12.3 µM; actives 1.1% (n = 360,000);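 active = mean replicate inhibition score of at least 50 and every replicate individually at or above 50; inconclusive = only one of the two criteria met; inactive = mean below 50 and not all replicates reaching 50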;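 also: 0% = plate neutral controls and 100% = maraviroc near 300 nM; one replicate is shown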
* marks the source's active call; other numbers are inactive results; ? = inconclusive; [ ] = another dose, or the depositor's remark. The list is partial. The share of hits here may be higher or lower than overall.

Structure,Yeast UUG start,HIV Env fusion
CO[C@H]1CN(C)C(=O)c2cc(NC(=O)Nc3ccccc3Cl)ccc2OC[C@@H](C)NC[C@@H]1C,-4,9[16.7 µM]
C[C@@H]1CCCCO[C@@H](CN(C)C(=O)c2ccccc2)[C@@H](C)CN([C@H](C)CO)C(=O)c2cc(NS(=O)(=O)c3ccc(Cl)cc3)ccc2O1,1,-10[16.7 µM]
C[C@@H]1CN([C@@H](C)CO)C(=O)Cc2cc(NC(=O)Nc3ccc4c(c3)OCO4)ccc2O[C@@H]1CN(C)C(=O)Nc1cccc2ccccc12,-3,17[16.7 µM]
C[C@@H]1CN([C@H](C)CO)S(=O)(=O)c2ccc(-c3ccc(F)cc3)cc2O[C@@H]1CN(C)C(=O)Nc1ccccc1F,13,-14[16.7 µM]
C[C@H](CO)N1C[C@H](C)[C@@H](CN(C)C(=O)CCC(F)(F)F)OCCCC[C@H](C)Oc2ccc(NS(=O)(=O)c3ccccc3)cc2C1=O,5,-79[16.7 µM]
N#C[C@@H]1[C@@H](c2ccc(C3=CCCC3)cc2)[C@@H](CO)N1C(=O)C1CCCC1,6,-8[16.7 µM]
C[C@H](CO)N1C[C@H](C)[C@@H](CN(C)Cc2cccnc2)Oc2ncc(/C=C/c3ccccc3)cc2C1=O,6,-18[16.7 µM]
Cc1ccc(S(=O)(=O)N(C)C[C@@H]2OCCCC[C@H](C)Oc3ccc(NS(=O)(=O)c4ccc(F)cc4)cc3C(=O)N([C@H](C)CO)C[C@@H]2C)cc1,-2,-25[16.7 µM]
CC(C)CC#Cc1ccc2c(c1)O[C@@H](CN(C)C(=O)c1cccc(F)c1)[C@H](C)CN([C@@H](C)CO)S2(=O)=O,0,39[16.7 µM]
C[C@H](CO)N1C[C@H](C)[C@H](CN(C)C(=O)Nc2ccccc2)OCCCC[C@H](C)Oc2ccc(NC(=O)Cc3ccccc3)cc2C1=O,-7,-61[16.7 µM]
COc1ccc([Si](C)(C)[C@@H]2[C@@H](CCn3cc(CCO)nn3)O[C@]3(C(=O)N(Cc4ccc(N5CCOC5=O)cc4)c4ccccc43)[C@H]2C)cc1,0,22[16.7 µM]
C[C@H]1CN([C@@H](C)CO)C(=O)c2cc(Br)cnc2O[C@H]1CN(C)C(=O)C1CCCCC1,4,-1[16.7 µM]
COCC(=O)N(C)C[C@@H]1Oc2ncc(C#Cc3ccc(F)cc3)cc2C(=O)N([C@H](C)CO)C[C@H]1C,10,-5[16.7 µM]
C[C@@H]1CN([C@@H](C)CO)C(=O)c2cc(NC(=O)NC3CCCCC3)ccc2O[C@@H]1CN(C)Cc1ccc2c(c1)OCO2,25,-24[16.7 µM]
CNC[C@@H]1Oc2ncc(C#CC3(O)CCCC3)cc2C(=O)N([C@@H](C)CO)C[C@H]1C,9,-14[16.7 µM]
CCS(=O)(=O)Nc1ccc2c(c1)C(=O)N(C)C[C@@H](OC)[C@H](C)CN(C(=O)COC)[C@@H](C)CO2,3,-5[16.7 µM]
CCO[C@@H]1OC(C(=O)N2CCN(Cc3ccccc3)CC2)=C[C@H](c2ccc3c(c2)OCO3)[C@H]1CCCO,-9,6[16.7 µM]
C[C@@H]1CN([C@@H](C)CO)C(=O)c2cccc(NC(=O)c3nc4ccccc4s3)c2O[C@@H]1CN(C)Cc1ccc(-c2ccccc2)cc1,7,24[16.7 µM]
COCc1cn(CC[C@H]2CC[C@H](NC(=O)Nc3ccc(Cl)cc3)[C@H](CO)O2)nn1,-4,5[16.7 µM]
COc1cccc(S(=O)(=O)N(C)C[C@@H]2Oc3cc(C#CCC(C)C)ccc3S(=O)(=O)N([C@H](C)CO)C[C@H]2C)c1,-13,71*[16.7 µM]
C[C@@H](NC(=O)C[C@@H]1CC[C@H](NC(=O)Nc2ccc3c(c2)OCO3)[C@@H](CO)O1)c1ccccc1,127*,-17[16.7 µM]
COc1cccc(NC(=O)N[C@@H]2CC[C@H](CC(=O)Nc3ccccc3)O[C@@H]2CO)c1,-8,-24[16.7 µM]
C[C@@H]1CN([C@@H](C)CO)S(=O)(=O)c2ccc(C#CC3CCCCC3)cc2O[C@H]1CN(C)C(=O)Cc1ccncc1,-4,10[16.7 µM]
C[C@@H]1CCCCO[C@@H](CN(C)C(=O)Cc2ccccc2)[C@@H](C)CN([C@H](C)CO)C(=O)c2cc(NC(=O)CCCCCC(=O)Nc3ccccc3N)ccc2O1,2,-10[16.7 µM]
CCCNC(=O)N1C[C@H](O)COC[C@@H]2O[C@H](CC(=O)NCCCN3CCOCC3)CC[C@H]21,-13,9[16.7 µM]
C[C@H]1CN([C@@H](C)CO)C(=O)c2cc(-c3cccc(C#N)c3)cnc2O[C@H]1CN(C)C(=O)C1CC1,-1,-16[16.7 µM]
CCC(=O)Nc1ccc2c(c1)C(=O)N(C)[C@H]1CC[C@@H](CC(=O)NCCOC)O[C@H]1CO2,3,19[16.7 µM]
C[C@@H]1CN([C@@H](C)CO)C(=O)c2cc(NC(=O)Nc3cccc4ccccc34)ccc2O[C@@H](C)CCCCO[C@@H]1CN(C)CC1CCCCC1,10,16[16.7 µM]
Cc1ccc(S(=O)(=O)Nc2ccc3c(c2)C(=O)N([C@@H](C)CO)C[C@@H](C)[C@H](CN(C)C(=O)c2ccccc2)OCCCC[C@@H](C)O3)cc1,20,8[16.7 µM]
COc1ccc(CN(C)C[C@H]2OCCCC[C@@H](C)Oc3ccc(NS(=O)(=O)c4ccc(C)cc4)cc3C(=O)N([C@@H](C)CO)C[C@H]2C)cc1,15,-19[16.7 µM]
CC(C)NC(=O)Nc1ccc2c(c1)C(=O)N(C)[C@H]1CC[C@H](CC(=O)Nc3ccccc3F)O[C@@H]1CO2,3,2[16.7 µM]
COC(=O)c1cn(CC(=O)N2CCC3(CC2)C(=O)NCN3c2ccccc2)nn1,22,-7[16.7 µM]
C[C@@H]1CN([C@@H](C)CO)C(=O)c2cc(C#C[C@@H](C)O)cnc2O[C@H]1CN(C)CC1CCCCC1,13,-2[16.7 µM]
C[C@H]1CCCCO[C@H](CN(C)C(=O)Cc2ccccc2)[C@@H](C)CN([C@@H](C)CO)C(=O)c2cc(NS(=O)(=O)c3cn(C)cn3)ccc2O1,-5,5[16.7 µM]
C[C@H]1CCCCO[C@@H](CN(C)C(=O)Nc2ccc(F)cc2)[C@@H](C)CN([C@@H](C)CO)C(=O)c2cc(NC(=O)c3ccccc3)ccc2O1,0,-27[16.7 µM]
CN1CCN(C(=O)C[C@H]2C[C@H]3c4cc(NC(=O)NC5CCCCC5)ccc4O[C@H]3[C@H](CO)O2)CC1,-2,12[16.7 µM]
CS(=O)(=O)N1[C@H](C#N)[C@@H](c2ccc(C#CC3CC3)cc2)[C@@H]1CO,-15,?
CCCc1cn(CC[C@H]2CC[C@@H](NC(=O)Nc3ccc4c(c3)OCO4)[C@@H](CO)O2)nn1,4,-14[16.7 µM]
C[C@@H]1CCCCO[C@H](CN(C)C(=O)CCCN(C)C)[C@@H](C)CN([C@@H](C)CO)C(=O)c2cc(NC(=O)Nc3ccc4c(c3)OCO4)ccc2O1,-7,-2[16.7 µM]
Cc1ccc(S(=O)(=O)N[C@H]2C=C[C@H](CC(=O)NCCCN(C)C)O[C@@H]2CO)cc1,-10,0[16.7 µM]
CCCC#Cc1ccc2c(c1)O[C@@H](CN(C)Cc1ccncc1)[C@H](C)CN([C@@H](C)CO)S2(=O)=O,-6,39[16.7 µM]
C[C@H]1CCCCO[C@H](CN(C)C(=O)Cc2ccccc2)[C@@H](C)CN([C@@H](C)CO)C(=O)c2cc(NS(C)(=O)=O)ccc2O1,13,-5[16.7 µM]
C[C@H](CO)N1C[C@H](C)[C@H](CN(C)C(=O)C2CCCCC2)OCCCC[C@H](C)Oc2ccc(NC(=O)NC3CCCCC3)cc2C1=O,-6,-66[16.7 µM]
COc1cccc(NC(=O)N[C@H]2CC[C@H](CC(=O)N3CCOCC3)O[C@@H]2CO)c1,0,16[16.7 µM]
COc1ccccc1-c1cn(CC[C@H]2CC[C@H](NC(=O)Cc3ccccn3)[C@@H](CO)O2)nn1,7,5[16.7 µM]
C[C@@H]1CN([C@@H](C)CO)C(=O)c2cc(NC(=O)CCCCCC(=O)Nc3ccccc3N)ccc2O[C@@H](C)CCCCO[C@@H]1CN(C)C(=O)Nc1ccc(C(F)(F)F)cc1,13,10[16.7 µM]
C[C@H](CO)N1C[C@H](C)[C@H](CN(C)CC2CCCCC2)Oc2ccc(NS(=O)(=O)c3ccc(Cl)cc3)cc2CC1=O,8,12[16.7 µM]
CC(C)CC#Cc1cnc2c(c1)C(=O)N([C@H](C)CO)C[C@H](C)[C@H](CN(C)Cc1ccccn1)O2,-10,2[16.7 µM]
C[C@@H]1CN([C@H](C)CO)C(=O)Cc2cc(NS(=O)(=O)c3cccs3)ccc2O[C@H]1CN(C)Cc1ccc(C(F)(F)F)cc1,4,12[16.7 µM]
COc1ccc(S(=O)(=O)N(C)C[C@@H]2Oc3ccc(NS(=O)(=O)c4c(C)noc4C)cc3C(=O)N([C@H](C)CO)C[C@H]2C)cc1,29,-52[16.7 µM]
C[C@H]1CN([C@@H](C)CO)C(=O)c2cc(NC(=O)Cn3cnnn3)ccc2O[C@H]1CN(C)CC1CC1,-3,12[16.7 µM]
C[C@H](NC(=O)C[C@H]1C[C@@H]2c3cc(NC(=O)CN(C)C)ccc3O[C@@H]2[C@H](CO)O1)c1ccccc1,0,14[16.7 µM]
CCNC(=O)Nc1ccc2c(c1)C(=O)N(C)[C@H]1CC[C@H](CC(=O)NCC3CC3)O[C@H]1CO2,7,-6[16.7 µM]
C[C@@H]1CCCCO[C@H](CN(C)C(=O)C2CCCCC2)[C@H](C)CN([C@@H](C)CO)C(=O)c2cc(NC(=O)c3ccncc3)ccc2O1,3,30[16.7 µM]
C[C@@H]1CCCCO[C@H](CN(C)C(=O)Nc2cccc3ccccc23)[C@H](C)CN([C@@H](C)CO)C(=O)c2cc(NS(=O)(=O)c3cn(C)cn3)ccc2O1,6,0[16.7 µM]
CO[C@H]1CN(C)C(=O)c2cc(NS(=O)(=O)c3ccccc3F)ccc2OC[C@@H](C)NC[C@@H]1C,-7,13[16.7 µM]
CCNC(=O)C[C@@H]1CC[C@@H]2[C@H](COc3ccc(NC(=O)c4ccc5c(c4)OCO5)cc3C(=O)N2C)O1,7,24[16.7 µM]
C[C@H]1CN([C@@H](C)CO)C(=O)Cc2cc(NC(=O)Cn3cnnn3)ccc2O[C@@H]1CN(C)Cc1ccccc1,6,6[16.7 µM]
C/C=C/c1cnc2c(c1)C(=O)N([C@@H](C)CO)C[C@H](C)[C@H](CN(C)CC1CCOCC1)O2,-4,3[16.7 µM]
O=C(O)C[C@@H]1CC[C@H](NC(=O)Nc2cc(F)ccc2F)[C@H](CO)O1,-1,14[16.7 µM]

Random excerpt: five compounds from above
Structure,Yeast UUG start,HIV Env fusion
Cc1ccc(S(=O)(=O)N[C@H]2C=C[C@H](CC(=O)NCCCN(C)C)O[C@@H]2CO)cc1,-10,0[16.7 µM]
COc1ccccc1-c1cn(CC[C@H]2CC[C@H](NC(=O)Cc3ccccn3)[C@@H](CO)O2)nn1,7,5[16.7 µM]
COC(=O)c1cn(CC(=O)N2CCC3(CC2)C(=O)NCN3c2ccccc2)nn1,22,-7[16.7 µM]
CCCC#Cc1ccc2c(c1)O[C@@H](CN(C)Cc1ccncc1)[C@H](C)CN([C@@H](C)CO)S2(=O)=O,-6,39[16.7 µM]
COc1cccc(NC(=O)N[C@H]2CC[C@H](CC(=O)N3CCOCC3)O[C@@H]2CO)c1,0,16[16.7 µM]

Other records follow:
Structure,Yeast UUG start,HIV Env fusion
CC(=O)N(C)C[C@H]1Oc2cc(C#CCN(C)C)ccc2S(=O)(=O)N([C@@H](C)CO)C[C@H]1C,2,0[16.7 µM]
C[C@@H]1CN([C@@H](C)CO)S(=O)(=O)c2ccc(C#Cc3ccncc3)cc2O[C@@H]1CN(C)C(=O)c1ccncc1,-6,-7[16.7 µM]
COc1ccc(S(=O)(=O)Nc2ccc3c(c2)CC(=O)N([C@@H](C)CO)C[C@@H](C)[C@@H](CN(C)Cc2ccc(Oc4ccccc4)cc2)O3)cc1,4,-15[16.7 µM]
CN(C)CC(=O)Nc1ccc2c(c1)[C@@H]1C[C@@H](CC(=O)NC3CCCC3)O[C@@H](CO)[C@@H]1O2,2,-14[16.7 µM]
C[C@H]1CN([C@@H](C)CO)C(=O)c2cccc(NS(=O)(=O)c3ccccc3)c2O[C@H]1CN(C)Cc1ccncc1,-11,9[16.7 µM]
C[C@@H]1CCCCO[C@@H](CN(C)S(=O)(=O)c2ccccc2)[C@H](C)CN([C@H](C)CO)C(=O)c2cc(NC(=O)NC3CCCCC3)ccc2O1,6,-10[16.7 µM]
C[C@@H]1CN([C@@H](C)CO)C(=O)c2cc(NC(=O)c3ccccc3)ccc2O[C@@H](C)CCCCO[C@@H]1CN(C)Cc1ccc(C(=O)O)cc1,0,-6[16.7 µM]
COCC(=O)N[C@H]1CC[C@@H](CC(=O)N2CCCCC2)O[C@H]1CO,1,13[16.7 µM]
